From PubChem
T cruzi repl: inhibitors of intracellular T. cruzi growth, primary screen, luminescence, NIH3T3 host cells. T. cruzi beta-gal in NIH3T3, 90 h. inhibition, % (no concentration beside the values). 300,000 tested, 1.4% active;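 active means mean inhibition across valid replicates above about 55%, limit read from the data; inconclusive means mean below that limit but half or more replicates reach it; inactive means mean below it, under half of replicates reach it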;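 further: signal also drops with host cell toxicity which is not excluded here; 0% = plate median of DMSO wells and 100% = zero luminescence signal; higher percent means less beta-gal luminescence so fewer parasites; stock transfer was 50 nL into about 50 µL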
A1 inh: caspase 3/7 activation in MEF A1-2A-BIM cells, primary screen, A1 inhibitor project, cell-based, luminescence, HTS; Caspase-Glo 3/7 luminescence, 3 h; percent of clofoctol response, vehicle zero; caspase activation, % (test concentration not listed); 330,000 tested, 0.066% active;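 active means over half of replicate activation scores above 10%, or exactly half above 10 with the replicate mean above 10; inconclusive means replicate mean below 10 yet half the replicates above 10; inactive means over half of replicates below 10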;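 further: wells of about 30 µL received 50 nL stock; many hits fall short of the cut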
MLL AF4-AF9 inh: inhibitors of AF4 peptide binding to AF9, primary screen, biochemical, AlphaScreen, biotin-AF4 peptide, FLAG-AF9, single point | Protein AF-9 (Homo sapiens), P42568 | inhibition, % at 10 µM | 350,000 tested, 0.47% active;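 active means every replicate reaching a set inhibition limit, whatever the replicate mean, cut at about 25% in these data; inconclusive means mean inhibition reaches that limit but some replicates miss it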;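 further: 0% = plate neutral control median and 100% = total signal loss; the record names both 10 and 1 µM as test concentration; the first replicate is given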
Target sequence (P42568 whole entry, looked up): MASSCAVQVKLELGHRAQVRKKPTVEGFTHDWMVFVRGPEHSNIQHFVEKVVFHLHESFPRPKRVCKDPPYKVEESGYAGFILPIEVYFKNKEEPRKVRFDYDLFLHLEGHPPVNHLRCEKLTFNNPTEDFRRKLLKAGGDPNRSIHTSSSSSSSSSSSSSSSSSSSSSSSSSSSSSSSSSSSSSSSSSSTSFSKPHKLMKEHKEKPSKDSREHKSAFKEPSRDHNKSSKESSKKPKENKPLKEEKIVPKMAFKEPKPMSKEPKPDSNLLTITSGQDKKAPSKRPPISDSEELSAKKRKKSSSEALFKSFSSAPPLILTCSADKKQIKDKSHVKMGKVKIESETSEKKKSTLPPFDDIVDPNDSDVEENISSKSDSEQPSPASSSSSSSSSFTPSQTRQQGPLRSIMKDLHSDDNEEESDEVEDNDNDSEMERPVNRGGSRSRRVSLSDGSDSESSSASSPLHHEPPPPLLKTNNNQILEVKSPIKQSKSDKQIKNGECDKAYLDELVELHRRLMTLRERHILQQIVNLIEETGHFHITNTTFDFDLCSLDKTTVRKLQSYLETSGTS
LANA-H2B inh: blockers of LANA interaction with H2A/H2B – biochemical, FP readout, HTS, primary screen; Protein LANA1 (Human herpesvirus 8 type P (isolate GK18)), Q9QR71; cell-free LANA-H2A/H2B peptide, fluorescence polarization; inhibition, % (no concentration beside the values); 320,000 tested, 0.6% active; in the data active means inhibition mostly above about 10%, no sharp cut-off; inactive means mostly below about 6.7%;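 further: stock transfer was 7.5 nL into about 10 µL; 0% = median of vehicle wells and 100% = median of positive control wells; one replicate is shown; the record names a cut of 25% in any replicate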
RanGTP-Imp inh: inhibitors of RanGTP-importin-beta interaction, primary screen, biochemical, FRET, CFP-Ran, YFP-importin-beta, homogeneous; Ran GTPase (GTP-bound) - importin-beta complex; cell-free CFP-Ran/YFP-importin-beta FRET ratio; inhibition, % (no concentration beside the values); 300,000 tested, 1.1% active; AID 2216, 2009;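 active means most replicates above 15%; inconclusive means exactly half above 15%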;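 further: 0% = DMSO wells and 100% = Ran loaded with GDP instead of GTP; wells of about 40 µL received 100 nL stock; the first replicate is given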
Calb FLC: C. albicans growth inhibition with fluconazole, primary screen, CaCi-2 strain, Alamar Blue fluorescence | C. albicans CaCi-2 (fluconazole-resistant clinical isolate) + fluconazole, 48 h | growth inhibition, % (concentration not given with the values) | 300,000 tested, 0.57% active | AID 1979, 2009;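 active means most replicates above 75%; inconclusive means exactly half above 75%; inactive means most below 75%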;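 further: all wells also contain fluconazole at 8 µg/ml as a sub-toxic cotreatment; 0% = median of DMSO wells and 100% = median of geldanamycin control wells; wells of about 8 µL received 7.5 nL stock; the first replicate is given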
Vif TR-FRET: inhibitors of Vif binding to APOBEC3G peptide, primary screen, biochemical, TR-FRET, GST-Vif 1-94, biotin-A3G peptide, dose response retest (AID 1117319). TR-FRET GST-Vif / biotin-A3G peptide binding; higher % means a stronger effect; test concentration not given here; strong numbers were not always called active. inhibition, %; hits with a dose series show IC50 in µM. 260,000 tested, 0.57% active. Virion infectivity factor (Human immunodeficiency virus type 1 group M subtype B (isolate …;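 active means above the screen mean plus three standard deviations and confirmed in dose response; inconclusive means results disagree or hit not tested in dose response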;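 further: Vif residues 1-94 fused to GST binding biotinylated APOBEC3G peptide 110-148; 0% = full assay without inhibitor and 100% = GST in place of GST-Vif; retest series ran down from 100 µM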
Beta apoptosis: inhibitors of cytokine-induced beta cell apoptosis, primary screen, luminescence; INS-1E cytokine-induced death, ATP luminescence, 48 h; percent of positive-control rescue, neutral wells zero; protection from apoptosis, % (test concentration not listed); 300,000 tested, 0.8% active;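 active means all replicates at 75% or more, or half of them and the mean; inconclusive means half reach 75% but not the mean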;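 further: 0% = cytokine-treated negative control wells and 100% = positive control rescue; higher means more ATP so stronger rescue from cytokine killing; wells of about 40 µL received 100 nL stock; the first replicate is given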
Numbers without * were called inactive; ? = inconclusive; nt = not tested or not shown; & = joins results of further samples.

compound | T cruzi repl | A1 inh | MLL AF4-AF9 inh | LANA-H2B inh | RanGTP-Imp inh | Calb FLC | Vif TR-FRET | Beta apoptosis
Cc1[nH]nc(SCC(=O)N2CCCCC2)c1[N+](=O)[O-] | 7 | -0.7 | nt | -0.2 | 1.7 | -4 | 0% | -13
O=Cc1ccc(OC(=O)/C=C/c2ccccc2)cc1 | 1 | -1.3 | -0.7 | 0.4 | -2.4 | -5 | 4% | -1
CC(=O)C1=C(C)N2CCN=C2S1 | 3 | 0.9 | -0.2 | -0.1 | 1.6 | 1 | 2% | nt
Cc1cccc(C(=O)N2CCCC(Nc3ccc(C)c(C)c3)C2)n1 (stereo not drawn) | -2 | -0.5 | -2.6 | 1.2 | 1.0 | 1 | 3% | -1
CS(=O)(=O)c1ccc(C(=O)OCC(=O)c2ccc(Cl)s2)cc1 | -4 | -0.1 | -4.0 | -1.3 | 2.2 | 5 | -3% | -6
CCN(CC)CCNC(CC(=O)Nc1ccc(Cl)cc1Cl)C(=O)O (stereo not drawn) | -10 | 0.0 | nt | -2.3 | -2.7 | -2 | 4% | -7
COc1ccc2oc(-c3ccc(C)c(NC(=O)CSc4ccc(Cl)cc4)c3)nc2c1 | -26 | -1.1 | 2.8 | 8.3 | -4.9 | 2 | -9% | 7
COC(=O)[C@@]12CCCN1[C@H](c1ccc(-c3ccc(Cl)c(Cl)c3)cc1)[C@H]1C(=O)N(C)C(=O)[C@H]12 | 18 | -0.8 | 2.9 | 0.4 | -0.8 | 16 | nt | 1
CSCCC(NC(=O)COc1ccccc1)C(=O)N1CCN(c2ccccc2Cl)CC1 (stereo not drawn) | 30 | 0.2 | 6.4 | 3.6 | 3.6 | 0 | -5% | 7
CC/C(=N\NC(=O)CNC(=O)/C=C/c1ccc(OC)cc1)c1ccccc1 | -4 | -1.1 | 3.3 | -0.6 | -1.4 | -5 | -6% | -4
CNC(=O)c1cc2cc(Br)ccc2s1 | -2 | -0.3 | -4.9 | 5.4 | 2.0 | 33 | -6% | -7
Fc1cccc(CCN2CCNC[C@@H]2Cc2ccccc2)c1 | 14 | 1.0 | 6.7 | -1.8 | 1.9 | -1 | nt | 6
COc1ccc(NC(=O)COC(=O)COc2cccc(Br)c2)cc1OC | -15 | -0.3 | -1.5 | -1.7 | 3.6 | 19 | 1% | -5
NC(=O)C[C@H]1NC(=O)[C@H](CCC(=O)O)NC(=O)c2cc([N+](=O)[O-])cc(I)c2NCCC[C@@H](C(N)=O)NC1=O | -5 | 1.0 | nt | -3.9 | -1.2 | -7 | 6% | -2
Cc1ccc(S(=O)(=O)N2CCCC2C(=O)NCc2ccccc2Cl)cc1 (stereo not drawn) | 16 | 0.1 | -7.4 | -1.7 | 3.3 | -10 | nt | 0
O=C(NC1CCCC1)C(c1ccccn1)N(C(=O)c1csnn1)C1CC1 (stereo not drawn) | -3 | 0.6 | nt | -1.7 | -2.4 | 28 | 8%&-2% | 1
O=C(/C=C/c1cccs1)NNC(=O)c1cccc([N+](=O)[O-])c1 | nt | -1.1 | -0.6 | -5.1 | nt | nt | 3% | -2
Cc1ccc(C)c(-n2c(=O)c(C#N)cc3c(=O)n4ccccc4nc32)c1 | 5 | 0.1 | 1.5 | -4.1 | 108* | -8 | nt | 1
CNC(=O)c1ccccc1Sc1ccccc1CO | -12 | 0.2 | -0.2 | 3.1 | ? | 9 | 1% | -1
Cc1cccc(OCCCC(=O)NC(C)C)c1 | -6 | 0.0 | nt | -0.1 | ? | -8 | 3% | -6
Cc1cc(Cl)cc(C)c1OCCn1ccnc1 | 2 | -0.8 | 1.0 | 6.0 | -2.9 | -15 | 0% | -5
O=C(CN1CCN(CCC(=O)Nc2ccccc2F)CC1)Nc1ccc(Cl)cc1 | nt | 0.8 | nt | -9.4 | 2.0 | 1 | 26% | -2
CCOC(=O)/C=c1\s/c(=C\c2c(OC)ccc3ccccc23)c(=O)n1CC(=O)NCC1CCCO1 (stereo not drawn) | 11 | -0.1 | 7.8 | -4.3 | 1.9 | 17 | 3% | 32
O=C(O)c1ccc(N2CCCCC2)cc1O | 8 | -0.4 | -3.2 | -0.1 | 2.8 | 18 | nt | 4
CC(=O)Nc1cccc(Oc2nc(C)cc(C)c2C#N)c1 | -4 | 0.6 | 1.8 | -6.0 | -3.7 | 3 | -6% | -2
COc1ccc(NC(=O)Cc2ccc(C)c(C)c2)cc1S(=O)(=O)N1CCCCC1 | nt | -1.4 | 1.4 | -4.1 | nt | nt | -4% | 2
O=c1ccc(=O)n(-c2ccccc2)[nH]1 | -23 | -0.5 | 0.9 | -1.3 | 2.5 | 19 | 3% | 0
O=C(CCn1cccc1)NCCc1ccc(Cl)cc1 | 19 | -1.4 | nt | 4.6 | -2.3 | -1 | -2% | -7
O=C(O)C1Nc2c(C(F)(F)F)ccc(Cl)c2C2C=CCC12 (stereo not drawn) | -7 | -0.9 | 1.5 | -0.8 | 0.3 | 3 | 25% | -14
CCCCOC(=O)Nc1ccc(S(=O)(=O)Nc2nc(C)cc(C)n2)cc1 | 0 | 0.0 | 2.4 | 0.2 | -1.2 | 0 | -1% | 2
O=C(COC(=O)Cc1ccc(Cl)cc1)Nc1ccccc1F | -10 | 0.7 | -4.0 | 0.9 | ? | 0 | 0% | -1
O=C(Nn1cnnc1)c1ccccc1-c1ccccc1 | -5 | 0.1 | nt | 6.5 | 1.4 | -1 | -1% | 1
Cc1cc(-c2nnc(SCC(=O)c3ccc(F)cc3)o2)no1 | -7 | -0.1 | -1.9 | 2.6 | -1.5 | 8 | 11% | -3
O=C(CSc1ncc(C(F)(F)F)cc1Cl)NCC1CCCO1 (stereo not drawn) | -3 | -0.4 | -7.3 | -2.7 | -1.4 | 10 | 2% | -7
COC(=O)C12CCC3(SCCS3)C(C(=O)OC)(CCC13SCCS3)C2 | -2 | 0.2 | 1.1 | -0.4 | -2.1 | -9 | -7% | 2
Cc1ccccc1Nc1ccc2nonc2c1[N+](=O)[O-] | -6 | 1.5 | 0.7 | -3.3 | 2.4 | 5 | -2% | -8
FC(F)(F)c1cnc(N2CCN(C(=S)NCc3ccccc3)CC2)c(Cl)c1 | -4 | -0.2 | -0.1 | -1.0 | 2.0 | 2 | -5% | -3
CN(C)c1ccc2c3c(ccc(N(C)C)c13)C(=O)OC2 | 0 | 0.6 | 1.7 | 2.8 | -4.2 | 2 | 3% | -2
CCOC(=O)c1cnc(SCC(=O)Nc2cccc(OC)c2)nc1N | 12 | -0.1 | nt | -0.4 | ? | 3 | -2% | -4
Cc1cc(C(=O)Nc2ccc3c(c2)OCO3)no1 | -2 | -1.1 | -6.7 | 2.8 | -5.4 | 5 | nt | -4
Cc1cc(C)c(C(=O)NC2CC(C)(C)Cc3c2cnn3-c2cccc(F)c2)[nH]1 (stereo not drawn) | 28 | nt | 7.5 | nt | 1.3 | 9 | nt | nt
O=[N+]([O-])c1ccc2nc(N3CCCC3)sc2c1 | 2 | -6.1 | -1.4 | 1.9 | -0.2 | -7 | -7% | 0
CCCC(=O)Nc1ccc2oc(-c3cncc(Br)c3)nc2c1 | -1 | -5.4 | 3.2 | -1.8 | 5.9 | -7 | 0% | -10
CCOC(=O)c1nnc(-c2ccccc2)nc1NCc1ccc(Cl)cc1 | 16 | 1.1 | nt | -7.6 | -1.4 | -2 | 7% | nt
CCN1CCN(c2ccc(NC(=O)c3ccc4c(c3)[nH]c(=O)n4Cc3ccc(OC)cc3)cc2)CC1 | 31 | 1.2 | nt | 6.4 | 0.5 | -2 | -10% | 16
COC(C[C@H]1O[C@H]1[C@H](O)[C@H](C)OCc1ccccc1)OC | ? | nt | 3.7 | nt | -0.3 | -3 | 20% | nt
O=C(Nc1nc2ccccc2n1CCN1CCCCC1)c1ccco1 | -10 | 0.1 | nt | 2.4 | 0.8 | 0 | 7% | 9
NC(=O)CC(NC(=O)Cc1ccc(Cl)cc1)c1ccc(NC2CC3CCC2C3)c([N+](=O)[O-])c1 (stereo not drawn) | 0 | -0.4 | 5.3 | -4.8 | -2.2 | 8 | nt | -4
Cc1cc(NC(=O)CCCC(=O)N(CC(=O)NC2CCCCC2)c2ccccc2)no1 | -3 | -1.6 | nt | 2.9 | 4.8 | 3 | 2% | -3
CCN(CC)S(=O)(=O)c1cccc(-c2nnc(SCC(=O)c3cc(C)n(C)c3C)o2)c1 | 20 | 0.1 | nt | 2.7 | 3.8 | 6 | 19% | 9
CCC(=O)Nc1ccc(NC(=S)NC(=O)c2oc3ccccc3c2C)cc1 | -1 | 0.1 | nt | 0.5 | -0.6 | -18 | ? | -6
CCCS(=O)(=O)NCCc1cc2c(OC)ccc(OC)c2[nH]c1=O | -13 | -0.3 | nt | -2.5 | 1.0 | -4 | -1% | -7
COc1cccc(Cn2c(=S)[nH]c3ccc(N4CCOCC4)cc3c2=O)c1 | 7 | 1.0 | nt | 0.8 | -0.5 | -4 | 25% | -10
O=C(C1CCC(=O)N1Cc1cccnc1)N1CCN(c2ccc(F)cc2)CC1 (stereo not drawn) | 23 | -0.5 | 0.7 | -3.9 | 2.6 | 2 | 1% | nt
CS(=O)(=O)N(CC(N)=O)c1cccc(Br)c1 | -7 | 2.0 | nt | -2.2 | 0.3 | 30 | -6% | -9
CCOc1c(Cl)cc(CNc2ccc(S(N)(=O)=O)cc2)cc1OC | -21 | -0.2 | nt | 4.5 | -2.5 | 5 | nt | 4
COc1cccc(OC)c1OCCCCN1CCCC1 | 10 | 0.3 | nt | -2.4 | 4.6 | 6 | 30% | 1
CCC(C(=O)NC1CCCC1)N(Cc1ccco1)C(=O)CNS(=O)(=O)c1ccccc1 (stereo not drawn) | 2 | 0.4 | 1.4 | 5.6 | 1.8 | 6 | nt | -1
COc1nnc(OC)c2ccccc12 | -22 | 0.1 | nt | 7.6 | 7.5 | -3 | 0% | -1
C=CC[C@@H](CC(=O)N[C@H](CO)Cc1ccccc1)C(=O)N[C@H](COC(=O)[C@@H](CC=C)Cc1ccc(F)cc1)Cc1ccccc1 | nt | 0.5 | -21 | 14 | nt | nt | nt | 4
COc1ccc(C(=O)CN2CCN(CCN3C(=O)c4cccc5cccc(c45)C3=O)CC2)cc1 | 38 | 0.0 | nt | 5.4 | -0.8 | 1 | nt | -2
CNC(=O)c1c(NC(=O)CCS(=O)(=O)c2ccccc2)sc2c1CCN(C(=O)OC)C2 | 5 | -0.7 | -3.1 | 0.8 | 7.5 | 19 | 4% | nt
Cc1oc(-c2ccc(Cl)cc2)nc1CN1CCC(C(=O)NCc2cccnc2)CC1 | -12 | 0.5 | nt | 5.7 | -2.8 | -30 | -4% | -1

Not a hit list. Share with any hit: about 4.3%.
